Mtb MenB inh = inhibitors of Mycobacterium tuberculosis MenB enzyme; P9WNP5; actives 0.43% (n = 100,000); inhibition, %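 (about 12 µg/mL by stock and volumes)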; MenB enzyme assay, absorbance read-out; some hits fall short of the stated cut;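 active means mean of two replicates above 30%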;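 further: 0% = no compound and 100% = wells with inactive enzyme; the first replicate is given; strong numbers were not always called active; inactives centre near -10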
Target sequence (P9WNP5 whole entry, looked up): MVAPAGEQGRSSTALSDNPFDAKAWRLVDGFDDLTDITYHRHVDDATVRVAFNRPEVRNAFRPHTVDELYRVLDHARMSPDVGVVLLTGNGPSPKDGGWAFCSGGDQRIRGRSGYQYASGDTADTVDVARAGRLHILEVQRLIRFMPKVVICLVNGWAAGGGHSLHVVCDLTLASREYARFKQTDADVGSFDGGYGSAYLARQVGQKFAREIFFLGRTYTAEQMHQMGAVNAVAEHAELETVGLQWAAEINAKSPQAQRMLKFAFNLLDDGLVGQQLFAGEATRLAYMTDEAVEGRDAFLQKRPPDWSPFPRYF
PV pol inh = poliovirus RNA polymerase inhibition; AID 588519; % elongation, % (compound at 16.7 µg/mL); poliovirus polymerase elongation, fluorescence polarization; stronger effect = lower value; actives 0.66% (n = 150,000); P03300; in the data active means % elongation below about 90%; further: some results filed as inactive read as strong as hits
Mtb MbtI inh = inhibitors of Mycobacterium tuberculosis siderophore enzyme MbtI; purified MbtI enzyme, fluorescence intensity read-out; inhibition, %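 (about 17 µg/mL by stock and volumes)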; AID 493033; actives 0.89% (n = 100,000);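 active means above 50% in both replicates, above 80% if mildly self-fluorescent; inactive means the rest, strongly fluorescent compounds included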;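 further: 0% = mean of negative and 100% = mean of positive controls; one replicate is shown; some compounds called inactive have numbers as strong as hits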
PV pol inh intensity = also measured in PV pol inh; calls as there; % elongation; measured here: total intensity read-out; formula for this scale not given here;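 total fluorescence in place of polarization; lower means less elongation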
* = called active by the depositor; i = inactive; · = not tested or not shown; & = joins results of further samples. An excerpt; the hit share may differ from the screen's.

1. O=C(c1ccccc1)c1ccc2n1CCC2C(=O)O (centres undefined)
2. Nc1ncnc(Nc2ccccc2)n1
3. COc1cc(C)nc(-n2nc(C)cc2OC)n1
4. CCN1CCN(c2cc(C)c3cc(NC(=S)NCc4ccc(C)cc4)ccc3n2)CC1
5. CC(C)(CO)[C@@H](O)C(=O)NCCCO
6. C#C[C@]1(O)CC[C@H]2[C@@H]3CCC4=CC(=O)CC[C@@H]4[C@H]3CC[C@@]21CC

screen / no.,1,2,3,4,5,6
Mtb MenB inh,-2&5,6,0,-42,3,-5
PV pol inh,100&98,97,100,97,99,101
PV pol inh intensity,100&102,102,103,96,102,101
Mtb MbtI inh,-8&-3,12,-13,-27,-9,-11

7. CCOC(=O)Nc1ccc2c(c1)N(C(=O)CCN1CCOCC1)c1ccccc1S2
8. Cc1ccc(C(=O)C(C)CN2CCCCC2)cc1 (centres undefined)
9. CN=C(N)NC(=O)Nc1c(C)cccc1C
10. CC[C@]12CCCN3CCc4c(n(c5ccccc45)[C@@](O)(C(=O)OC)C1)[C@@H]32
11. NC(=O)c1ccc([N+](=O)[O-])cc1Cl
12. Cc1ccsc1/C=C/C1=NCCCN1C

screen / no.,7,8,9,10,11,12
Mtb MenB inh,-4&-34,-3,0,-4,10,-10&-6
PV pol inh,98&98,103,102,98,100,98&100
PV pol inh intensity,100&100,101,98,101,99,100&104
Mtb MbtI inh,3,-9,·,-10,-5,1&5

13. NC(=O)NC(=O)Cc1ccccc1
14. CCC(Cc1c(I)cc(I)c(N)c1I)C(=O)O (centres undefined)
15. CCN(CC)CCOC(=O)C(c1ccccc1)c1ccccc1
16. CCCc1cc(C(N)=S)ccn1
17. COC(=O)Nc1nc2ccc(S(=O)c3ccccc3)cc2[nH]1 (centres undefined)
18. O=C1CCc2cc(OCCCCc3nnnn3C3CCCCC3)ccc2N1

screen / no.,13,14,15,16,17,18
Mtb MenB inh,-1,-19&2,-5&3,-13,3,-1
PV pol inh,100,99&101,101&97,101,99,101
PV pol inh intensity,101,101&102,99&102,102,103,102
Mtb MbtI inh,-25,-53&-42,-15&-16,-3,-7,-11

Shown field by field: four of the compounds above.
14. CCC(Cc1c(I)cc(I)c(N)c1I)C(=O)O (centres undefined)
  Mtb MenB inh = -19&2 | PV pol inh = 99&101 | PV pol inh intensity = 101&102 | Mtb MbtI inh = -53&-42
13. NC(=O)NC(=O)Cc1ccccc1
  Mtb MenB inh = -1 | PV pol inh = 100 | PV pol inh intensity = 101 | Mtb MbtI inh = -25
17. COC(=O)Nc1nc2ccc(S(=O)c3ccccc3)cc2[nH]1 (centres undefined)
  Mtb MenB inh = 3 | PV pol inh = 99 | PV pol inh intensity = 103 | Mtb MbtI inh = -7
18. O=C1CCc2cc(OCCCCc3nnnn3C3CCCCC3)ccc2N1
  Mtb MenB inh = -1 | PV pol inh = 101 | PV pol inh intensity = 102 | Mtb MbtI inh = -11

Following part
19. CC(C)(C(=O)c1cccnc1)c1cccnc1
20. CCCN(CCC)C(=O)C(CCC(=O)O)NC(=O)c1ccccc1 (centres undefined)
21. CN(C)CCOC(=O)C(c1ccccc1)C1(O)CCCC1 (centres undefined)
22. OCC(O)CN1CCN(c2ccccc2)CC1 (centres undefined)
23. CN=C(NC#N)Nc1ccc(C2=NNC(=O)CC2C)cc1 (centres undefined)
24. CCCCOC(=O)c1ccc(N)cc1

screen / no.,19,20,21,22,23,24
Mtb MenB inh,-13,-22&0,4&7,-5&9,-7,-1&4
PV pol inh,99,104&97,101&100,97&99,98&99,100&102
PV pol inh intensity,101,98&99,101&96,102&102,104&102,99&100
Mtb MbtI inh,-13,-5&-12,-7&4,-6&-4,-4,-12&-16

25. C=C1c2cccc(O)c2C(O)=C2C(=O)C3(O)C(O)=C(C(N)=O)C(=O)C(N(C)C)C3C(O)C12 (centres undefined)
26. CC[C@H]1C(=O)OC[C@@H]1Cc1cncn1C
27. Cc1oncc1C(=O)Nc1ccc(C(F)(F)F)cc1
28. CN1CCC(=C2c3ccccc3CC(=O)c3sccc32)CC1
29. CN1CCN(CCCN2c3ccccc3Sc3ccc(S(=O)(=O)N(C)C)cc32)CC1
30. NC(=O)c1ccc(-c2nc(-c3ccc4c(c3)OCO4)c(-c3ccccn3)[nH]2)cc1
31. O=C(O)c1cc(-c2ccccc2)no1
32. O=C(O)CCCCCCCC(=O)O

screen / no.,25,26,27,28,29,30,31,32
Mtb MenB inh,-20,1,1&-11,-1&10,-2,-5,17,-2
PV pol inh,102,106,99&99,100&100,101,101&100,102,103
PV pol inh intensity,101,102,100&101,99&102,100,103&100,101,99
Mtb MbtI inh,38,-7,-10&-6,0&1,2,i,-4,-14

Part of the list above with just PV pol inh intensity and Mtb MenB inh:
cpd | structure | PV pol inh intensity | Mtb MenB inh
26 | CC[C@H]1C(=O)OC[C@@H]1Cc1cncn1C | 102 | 1
27 | Cc1oncc1C(=O)Nc1ccc(C(F)(F)F)cc1 | 100&101 | 1&-11
28 | CN1CCC(=C2c3ccccc3CC(=O)c3sccc32)CC1 | 99&102 | -1&10
29 | CN1CCN(CCCN2c3ccccc3Sc3ccc(S(=O)(=O)N(C)C)cc32)CC1 | 100 | -2
30 | NC(=O)c1ccc(-c2nc(-c3ccc4c(c3)OCO4)c(-c3ccccn3)[nH]2)cc1 | 103&100 | -5

Source: PubChem BioAssay (ICCB-Longwood Screening Facility, Harvard Medical School)
